Mtb bLac sens = beta-lactam sensitization of Mtb H37Rv; M. tuberculosis H37Rv growth with meropenem, percent inhibition; hits of this screen are not shown here; inhibition, % at 25 µM; AID 434955; 0.27% of 330,000 active;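 active means about 74% or more and at least 40 points above the plate without the antibiotic, then above 30% in a dose series; inconclusive means first-round hits that could not be retested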;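 further: growth measured after seven days incubation then overnight dye step; 0% = bacteria only wells and 100% = bacteria with antibiotic; twin plates without the antibiotic show which effects depend on it; some results filed as inactive read as strong as hits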
Arbovirus inh = antivirals against arbovirus infection | arbovirus infection cell-based antiviral screen | inhibition, % at 10 µM | 0.37% of 200,000 active;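 active means inhibition from about 30%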;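 further: bluetongue infection of BSR cells; cell survival read as ATP light after 72 h; 0% = infected wells without compound and 100% = uninfected wells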
RecA splice inh = Mtb RecA intein splicing inhibition; inhibition, %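 (about 9 µM by stock and volumes)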; 0.75% of 290,000 active; AID 2221; cell-free RecA intein splicing, fluorescence; P9WHJ3; in the data active means inhibition above about 30%; inconclusive means no clear call, values can overlap the other calls;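 further: 0% = vehicle wells and 100% = reference inhibitor control wells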
Target sequence (P9WHJ3 whole entry, looked up, canonical isoform): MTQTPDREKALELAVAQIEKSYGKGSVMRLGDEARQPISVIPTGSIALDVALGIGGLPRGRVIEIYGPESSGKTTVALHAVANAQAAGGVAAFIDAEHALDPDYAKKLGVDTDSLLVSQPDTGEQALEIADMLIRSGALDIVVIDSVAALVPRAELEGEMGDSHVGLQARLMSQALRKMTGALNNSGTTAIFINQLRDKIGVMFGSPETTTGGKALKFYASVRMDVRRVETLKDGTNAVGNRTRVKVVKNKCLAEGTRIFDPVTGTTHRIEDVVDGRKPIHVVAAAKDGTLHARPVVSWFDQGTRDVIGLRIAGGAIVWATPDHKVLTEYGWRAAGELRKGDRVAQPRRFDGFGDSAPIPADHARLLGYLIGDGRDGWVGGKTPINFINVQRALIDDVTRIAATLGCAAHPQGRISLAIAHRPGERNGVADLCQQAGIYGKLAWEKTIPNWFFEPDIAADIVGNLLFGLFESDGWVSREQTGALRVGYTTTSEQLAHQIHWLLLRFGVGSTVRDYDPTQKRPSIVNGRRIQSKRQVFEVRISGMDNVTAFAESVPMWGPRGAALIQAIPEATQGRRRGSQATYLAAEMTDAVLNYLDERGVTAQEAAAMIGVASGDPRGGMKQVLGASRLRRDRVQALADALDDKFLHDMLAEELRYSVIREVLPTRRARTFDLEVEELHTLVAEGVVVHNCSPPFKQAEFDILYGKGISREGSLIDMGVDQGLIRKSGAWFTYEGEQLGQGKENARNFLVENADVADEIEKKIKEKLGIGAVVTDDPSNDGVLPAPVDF
Mtb growth = M. tuberculosis H37Rv growth inhibitors, H37Rv strain (AID 1626) | M. tuberculosis H37Rv growth inhibition; higher % means a stronger effect | inhibition, % at 10 µM; hits with a dose series show IC50 in µM | 0.95% of 220,000 active;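 active means confirmed in a dose series; inconclusive means inhibition above 80% but not taken into the dose series; inactive means below 80% or under 30% at every dose of the series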;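 further: bacteria incubated seven days before Alamar blue readout; 0% = bacteria only wells and 100% = bacteria with antibiotic wells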
YopH inh = blocks Yersinia enterocolitica YopH tyrosine phosphatase; 0.16% of 140,000 active; fluorescence Ex485/Em525; inhibition, %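 (about 10 µM by stock and volumes)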;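 active means inhibition of 50% or more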;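 further: controls were vehicle for no effect and minimum signal wells for full effect; inactives centre near -20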
Arbovirus inh repeat = second read-out of Arbovirus inh, no call of its own (marks repeat the call); inhibition, %; measured here: 10K subset replicate screen; many hits read low in the repeat;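 first of two repeat runs on a subset; 0% = infected and 100% = uninfected wells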
* = called active by the depositor; ? = inconclusive; nt = not tested or not shown. Not all compounds are listed; rates above refer to the full screens.

SMILES	Mtb bLac sens	Arbovirus inh	RecA splice inh	Mtb growth	YopH inh	others
C/C(N)=C(/C#N)C(=O)COC(=O)c1ccc(C)c(S(=O)(=O)N2CCCCC2)c1	-6	0	0.8	4%	-13
Cc1cccc(NC(=O)Nc2ccccc2[N+](=O)[O-])n1	?	nt	1.0	nt	nt
CC1(C)CC(NC(=O)C(=O)NCCc2ccc(Cl)cc2)CC(C)(C)N1	6	-6	2.0	3%	nt
CC(C)CC(=O)Nc1nnc(SCC(=O)NC2CCCCC2)s1	1	nt	-0.3	nt	nt
C=CCSc1nc(C)cc2c1C(=O)OC2	-5	-2	nt	-7%	nt
O=C(c1cccnc1)N1CCN(S(=O)(=O)c2cccc(Cl)c2)CC1	-5	nt	-1.1	nt	nt
O=C(NCCc1ccccn1)c1ccc(NS(=O)(=O)c2ccc(F)cc2)cc1	2	-1	3.3	-4%	nt
CCOC(=O)c1cc2sccc2n1CC(=O)Nc1ccc2c(c1)OCCO2	8	10	-1.7	4%	-27
CC(=O)NCc1nnc2c3ccccc3c(-c3ccccc3)nn12	3	-4	-1.0	-4%	nt
Cc1c(Cl)cccc1NC(=O)NC1CCCCC1	-1	3	-1.3	-29%	-21
C=CCCC(=O)NC1CC(C)(C)Cc2c1cnn2-c1cccc(F)c1 (stereo not given)	6	nt	1.3	nt	nt
OCCCn1c(C2CCCN2c2nc(-c3ccc(Cl)cc3)cs2)nc2cc(Cl)c(Cl)cc21 (stereo not given)	91	nt	3.4	22%	nt
CC(C)c1ccc(NC2CCCN(C(=O)c3cccs3)C2)cc1 (stereo not given)	9	nt	-2.1	nt	nt
CCCC#CCN1CCN(C23CC4CC(CC(C4)C2)C3)CC1	1	nt	-0.7	nt	nt
CC(=O)Nc1ccc(OCC(O)CN2CCN(c3ccc(Cl)cc3)CC2)cc1 (stereo not given)	-7	-2	0.5	5%	-32
Nc1ccc(S(=O)(=O)Nc2ccc(Cl)nn2)cc1	10	nt	-1.2	-14%	nt
CC1CCCCN1Cc1nc2c(c(=O)n(C)c(=O)n2C)n1CCc1ccccc1 (stereo not given)	7	-7	-1.8	9%	-17
Cc1nc(Nc2nc3c(c(=O)[nH]2)CCC3)nc2ccccc12	63	nt	1.9	nt	nt
Cc1ccc(-n2c(SCC(N)=O)nc(O)cc2=O)cc1	-5	2	0.6	-7%	-16
CCOC(=O)Cc1nnc(NC(=O)CSc2nc3ccccc3[nH]2)s1	2	nt	-1.1	nt	nt
COc1ccccc1CNC(=O)CCN1C(=O)COc2ccc(C)cc21	0	8	-3.2	-1%	-38
COc1cccc(NC(=O)C(=O)NCCC2CCCCN2S(=O)(=O)c2cccs2)c1 (stereo not given)	-11	nt	3.4	nt	nt
Cc1ccc(C(=O)NCc2ccco2)c(C)c1	0	nt	-0.6	nt	nt
Cc1ccc(-c2noc(CCC(=O)NC3CCCc4ccccc43)n2)cc1 (stereo not given)	9	4	0.8	7%	-27
Cc1ccc(Nc2nc(N)nc(CSc3nnc(C)s3)n2)cc1	2	nt	0.2	-2%	nt
O=C(O)c1ccc2c(=O)n(-c3ccccc3F)c(=S)[nH]c2c1	4	5	0.6	-3%	nt
O=S(=O)(NCc1ccncc1)c1ccc(Br)s1	2	11	1.9	6%	-8
CC(C)Oc1nnnn1-c1ccccc1	-8	4	1.5	-11%	-4
CCN(CC(=O)N(CC(C)C)c1c(N)n(CC(C)C)c(=O)[nH]c1=O)Cc1nc2ccccc2c(=O)[nH]1	-11	nt	3.6	4%	nt
Cc1ccc(C(C)C)c(OCCCN(C)Cc2ccccc2)c1	-10	8	2.4	10%	-12
O=C(CCc1nnc2ccc(NCc3ccccc3Cl)nn12)NCC1CCN(C2CCCC2)C1 (stereo not given)	10	nt	3.3	nt	nt
CCOC(=O)C1(CCOc2ccccc2)CCN(Cc2cnc(SC)nc2)CC1	-13	8	1.3	2%	nt
CN1CCN(S(=O)(=O)c2csc(C(N)=O)c2)CC1	-11	nt	-3.1	nt	nt
COc1ccccc1CNCc1cccs1	-7	-1	-3.8	0%	-44
Cc1cc(C)c2cc(CN(CC3CCCO3)S(=O)(=O)c3ccc4c(c3)OCCO4)c(=O)[nH]c2c1 (stereo not given)	6	-13	3.2	-9%	-38
O=C(N/C(=C\c1ccco1)C(=O)N1CCOCC1)c1ccco1	0	0	-1.0	3%	nt
Cc1nn(-c2ccccc2)c(C)c1NC(=O)COc1ccc(Br)cc1Cl	4	-4	0.3	12%	-25
Cc1cccc(C)c1NC(=S)N(CCc1ccncc1)C(C)C	-7	7	1.3	5%	nt
CC1(C)Cc2c(sc(NC(=O)c3ccc(Br)o3)c2C#N)CO1	-3	2	-0.3	6%	-32
COc1ccc([N+](=O)[O-])cc1NC(=O)COC(=O)C=C(C)C	-4	-3	-0.6	1%	nt
O=C(CSc1nnc2ccc(-c3cccnc3)nn12)Nc1ccccc1F	2	nt	-2.1	nt	nt
COc1ccccc1NC(=O)CSc1n[nH]c(Cc2ccccc2)n1	-8	nt	0.0	nt	nt
COc1ccc2c(=O)c(-c3ccccc3C)c(C)oc2c1	2	0	-0.6	11%	-25
COc1ccc2[nH]c(=O)c(CN(CCO)S(=O)(=O)c3ccc4c(c3)OCCO4)cc2c1	4	8	-3.0	nt	-32
O=C(COC(=O)[C@H](Cc1ccccc1)NC(=O)c1cccs1)NC1CCCCC1	0	1	3.3	-7%	-31
CCc1ccc(Nc2oc(C)cc(=O)c2C(C)=O)cc1	87	-3	2.8	66%	8
Cc1cc(Nc2cccc(C(F)(F)F)c2)n2nc(C)nc2n1	18	-9	1.0	0%	-32
Cc1nc(SCC(=O)O)n[nH]1	4	nt	-1.7	-4%	nt
CC1CC(=O)N(CC(=O)Nc2ccc(F)cc2)c2ccccc2S1(=O)=O (stereo not given)	-7	nt	1.3	nt	nt
Cc1ccc(-c2c(C)sc3ncn(CC(=O)N4CCOCC4)c(=O)c23)cc1C	-6	nt	-0.8	-2%	nt

Structures from the list above that contain a COOH group (two):
SMILES	Mtb bLac sens	Arbovirus inh	RecA splice inh	Mtb growth	YopH inh	others
O=C(O)c1ccc2c(=O)n(-c3ccccc3F)c(=S)[nH]c2c1	4	5	0.6	-3%	nt
Cc1nc(SCC(=O)O)n[nH]1	4	nt	-1.7	-4%	nt

New compounds follow:
SMILES	Mtb bLac sens	Arbovirus inh	RecA splice inh	Mtb growth	YopH inh	others
COc1ccc(OC)c(S(=O)(=O)N2CCC(C(=O)NCc3ccncc3)CC2)c1	3	nt	1.9	nt	nt
CC(C)OC(=O)CSc1nnc(-c2ccc(C(C)(C)C)cc2)n1N	98	3	0.9	5%	1
Cc1c(Br)cc(C(=O)NCc2ccco2)c(C)c1C	19	-5	9.2	1%	-20
CCN(CC)CCC(=O)c1ccc(F)cc1	81	1	-0.4	3%	nt
CCc1nnc(NC(=O)CCN(c2ccc(C)cc2)S(=O)(=O)c2ccccc2)s1	-7	13	0.5	5%	-26
Cn1c(CCN2CCN(c3ccc(F)cc3)CC2)nc2cc(NC(=O)c3ccco3)ccc21	-2	-4	-0.6	-2%	-45
Cc1ccc(N2C(=O)c3ccccc3C2Nc2ccc(S(=O)(=O)N3CCCCC3)cc2)nc1 (stereo not given)	-7	2	6.7	9%	-19
CCC(=O)OCc1c(C(F)(F)F)nn(C)c1Sc1ccc(F)cc1	6	8	6.3	-1%	-29
CC(=O)Nc1ccc(S(=O)(=O)N2CCN(C(=O)N3CCCCC3)CC2)cc1	1	nt	-5.5	nt	nt
c1ccc(N2CCN(c3ncnc4scc(-c5cccs5)c34)CC2)cc1	63	17	nt	-8%	8
CCOc1ccc(-c2cc(C(=O)NCCCN3CCCC3)c3ccccc3n2)cc1	5	nt	1.3	nt	nt
Cc1oc(-c2ccc(C(F)(F)F)cc2)nc1CN(Cc1ccccn1)C[C@@H]1CCC(=O)N1	-7	-5	2.9	6%	nt
CSc1ncccc1C(=O)Nc1ccc(F)c(F)c1F	-1	21	5.8	7%	nt
CCOC(=O)c1ccc(N2CCN(c3cc(C)ccc3C)CC2)c(N)c1	98	nt	2.3	nt	nt
Cc1nc2c(cc1C(=O)N/N=C/c1ccc(O)c(O)c1)c(=O)n(C)c(=O)n2C	1	-10	-5.8	-2%	-28
COc1ccc(NC(=O)CCc2ccc(OC)c(OC)c2)cn1	-1	nt	2.5	nt	nt
COc1ccc(NC(=O)C/C(C)=N/NC(=O)c2cnccn2)cc1	nt	2	-5.2	-3%	nt
O=C(c1cc(-c2ccc(F)cc2)on1)N1CCOCC1	-2	nt	-0.6	nt	nt
CCc1ccc(OCC(O)CN2CCC(CN3C(=O)c4cccc5cccc(c45)C3=O)CC2)cc1 (stereo not given)	100	-33	2.5	?	2
C=CCNC(=S)/C(=C(/[O-])c1ccc([N+](=O)[O-])cc1)[n+]1ccccc1	5	0	12	0%	nt

7 records drawn at random from those above, as already listed:
SMILES	Mtb bLac sens	Arbovirus inh	RecA splice inh	Mtb growth	YopH inh	others
CCc1ccc(OCC(O)CN2CCC(CN3C(=O)c4cccc5cccc(c45)C3=O)CC2)cc1 (stereo not given)	100	-33	2.5	?	2
Cc1nc2c(cc1C(=O)N/N=C/c1ccc(O)c(O)c1)c(=O)n(C)c(=O)n2C	1	-10	-5.8	-2%	-28
CCOC(=O)c1ccc(N2CCN(c3cc(C)ccc3C)CC2)c(N)c1	98	nt	2.3	nt	nt
COc1ccc(NC(=O)CCc2ccc(OC)c(OC)c2)cn1	-1	nt	2.5	nt	nt
O=C(c1cc(-c2ccc(F)cc2)on1)N1CCOCC1	-2	nt	-0.6	nt	nt
Cc1oc(-c2ccc(C(F)(F)F)cc2)nc1CN(Cc1ccccn1)C[C@@H]1CCC(=O)N1	-7	-5	2.9	6%	nt
CSc1ncccc1C(=O)Nc1ccc(F)c(F)c1F	-1	21	5.8	7%	nt

Gathered by group, the entries above containing a nitro group on carbon.
SMILES	Mtb bLac sens	Arbovirus inh	RecA splice inh	Mtb growth	YopH inh	others
Cc1cccc(NC(=O)Nc2ccccc2[N+](=O)[O-])n1	?	nt	1.0	nt	nt
COc1ccc([N+](=O)[O-])cc1NC(=O)COC(=O)C=C(C)C	-4	-3	-0.6	1%	nt
C=CCNC(=S)/C(=C(/[O-])c1ccc([N+](=O)[O-])cc1)[n+]1ccccc1	5	0	12	0%	nt

(next part)
SMILES	Mtb bLac sens	Arbovirus inh	RecA splice inh	Mtb growth	YopH inh	others
O=C(NCCCN1CCOCC1)c1cc2c(s1)CCCC2	-8	11	1.3	-4%	-44
O=C(Nc1ccc(-c2noc(-c3ccccc3F)n2)cc1)c1cccs1	-2	-9	-2.1	-1%	-25
N/C(=N\OC(=O)CCCN1C(=O)c2ccccc2C1=O)c1ccccn1	-3	2	-1.5	2%	nt
Cc1cccc(NC(=S)/N=C(\N)Nc2nc(C)c3cc(C)ccc3n2)c1	41	28	16	4%	-21
Cc1ccc(C(=O)Oc2ccc(C(=S)N3CCOCC3)cc2)cc1	0	nt	-3.6	nt	nt
COC(=O)/C(=C\Nc1cccc(Cl)c1C)c1ncc(C(F)(F)F)cc1Cl	63	-27	-1.2	-5%	-14
Cc1nc(SCC(=O)NCc2cccs2)nc(C)c1C	-5	2	-0.7	-1%	nt
Cc1ccc(NC(=O)C(C)OC(=O)/C=C/c2ccccc2)cc1 (stereo not given)	-25	nt	-0.9	nt	nt
O=C(COc1ccc(F)cc1)Nc1nc2c(s1)CCCC2	6	nt	0.2	nt	nt
COc1ccc(-c2c(C#N)c(SCc3c(C)noc3C)nc3c2C(=O)CC(C)(C)C3)cc1	-1	7	2.7	nt	-17
COc1ccccc1NS(=O)(=O)c1cccc(NC(=O)c2cc3ccccc3oc2=O)c1	4	-2	0.0	-4%	nt
COc1ccc(C(=O)CC(=O)c2ccc(F)cc2)cc1	13	nt	4.0	nt	nt
c1ccc(CSc2ncnc3sccc23)cc1	4	-1	4.3	9%	nt
CCOC(=O)c1nnsc1Nc1ccc(C)c(C)c1	-3	-2	-1.8	-10%	nt
O=C(CCc1ccccc1)Nc1ccc(S(=O)(=O)N2CCOCC2)cc1	4	nt	0.5	8%	nt
CCc1cccc(C)c1NC(=O)CN1C(=O)c2ccccc2S1(=O)=O	-1	11	nt	-16%	nt	Arbovirus inh repeat=0
O=C(CC(C(=O)O)c1cccc(Cl)c1Cl)c1ccccc1 (stereo not given)	4	nt	-3.7	nt	nt
CCCS(=O)(=O)c1nc(S(=O)(=O)c2ccc(C)cc2)c(NCCN2CCOCC2)s1	4	11	-0.3	-6%	-40	Arbovirus inh repeat=4
CN1/C(=C/C(=O)c2nc(S(C)(=O)=O)ncc2Cl)C(C)(C)c2ccccc21	96	-41	77*	12µM*	-37
Cc1ccc(C(C(=O)NC2CCCC2)N(C(=O)c2csnn2)C2CCCC2)o1 (stereo not given)	-16	-4	0.0	1%	-44
O=C(CNC(=O)c1ccccc1F)N/N=C/c1ccco1	-3	nt	-2.5	nt	nt
COc1ccc(/C=C(/NC(=O)c2ccccc2)C(=O)N2CCCCC2)cc1OC	1	nt	-1.0	nt	nt

Bioassay records: PubChem BioAssay, several laboratories
